Assay outcomes: PubChem BioAssay, ICCB-Longwood Screening Facility, Harvard Medical School
AID504770 – growth inhibition of E. coli YBA685, primary screen, V. cholerae RctB inhibitors; E. coli YBA685 rctB-dependent plasmid, OD600 growth, 3 h; hits give low values; z-score (concentration not given with the values); actives 0.27% (n = 130,000);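 active = z-score under -2 on both plates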;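 also: wells of about 30 µL received 100 nL stock; score is relative to mean and SD of the test wells; the first replicate is given; strong numbers were not always called active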
Ba CapD inh – Bacillus anthracis CapD inhibitors, primary screen, biochemical, fluorescence intensity; purified CapD enzyme, fluorescence intensity read-out; hits give low values; some hits fall short of the stated cut; z-score (no concentration beside the values); actives 0.23% (n = 140,000);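 active = z-score under -4 in either of two replicates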;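 also: stock transfer was 100 nL into about 40 µL; score is relative to mean and spread of the plate; one replicate is shown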
The depositor's hits bear a star; · = no result given.

SMILES | AID504770 | Ba CapD inh
O=C(NNC(=O)c1nccc2ccccc12)OCCc1cccc2ccccc12 | · | -0.32
CCOC(=O)c1oc2cccc(O)c2c1CN(Cc1ccccc1)C(C)=O | -1.1 | 0.62
COC(=O)c1c(NC(C)=O)csc1C | -0.7 | -1.4
Cc1cc(-c2onc(C)c2C(=O)Sc2c(Cl)cccc2Cl)no1 | -0.4 | -0.02
COc1ccc(C(=O)Nc2ccc3nc(C)sc3c2)cc1 | · | -0.15
O=C(/C=N/O)Nc1ccccc1I | -0.6 | -0.065
CCC(C)NC(=O)c1nn(C)c(=O)c2ccccc12 (stereo not drawn) | -0.4 | ·
Cc1nc2cc(C(=O)OCC(N)=O)ccc2n1-c1ccccc1 | -0.35 | ·
CCOC(=O)c1cc(-c2ccc(C)cc2)n(CC(=O)NC2CCCC2)c1C | -1 | -0.34
COc1cccc(Oc2coc3cc(O)ccc3c2=O)c1 | -0.85 | 0.08
FCc1nc2ccccc2s1 | -0.55 | 0.7
O=C1N=C(N2CCCC2)S/C1=C/c1ccc(O)cc1 | 1.8 | -0.98
CCOC(=O)c1nc(NCc2cccnc2)c2c3c(sc2n1)CCCC3 | · | 10
Cc1ccc2c(c1)/C(=N/OC(=O)CCCl)C(=O)N2Cc1ccc(Cl)cc1 | · | -1.7
COc1cccc(C(=O)Nc2nn3c(-c4ccc(OC)c(OC)c4)nnc3s2)c1 | -0.8 | -0.39

Retrieved by structure from above:
SMILES | AID504770 | Ba CapD inh
CCOC(=O)c1nc(NCc2cccnc2)c2c3c(sc2n1)CCCC3 | · | 10
COc1cccc(C(=O)Nc2nn3c(-c4ccc(OC)c(OC)c4)nnc3s2)c1 | -0.8 | -0.39
CCC(C)NC(=O)c1nn(C)c(=O)c2ccccc12 (stereo not drawn) | -0.4 | ·
CCOC(=O)c1cc(-c2ccc(C)cc2)n(CC(=O)NC2CCCC2)c1C | -1 | -0.34
FCc1nc2ccccc2s1 | -0.55 | 0.7
Cc1cc(-c2onc(C)c2C(=O)Sc2c(Cl)cccc2Cl)no1 | -0.4 | -0.02
Cc1nc2cc(C(=O)OCC(N)=O)ccc2n1-c1ccccc1 | -0.35 | ·

Next entries follow:
SMILES | AID504770 | Ba CapD inh
CC(=O)OCC(COC(C)=O)OC(C)=O | 0.45 | 0.27
NC(=O)COC(=O)c1ccccc1C(=O)c1ccccc1 | -0.5 | 0.26
FC(F)(F)c1ccc(-c2[nH]ncc2-c2ccnc3ccccc23)cc1 | · | -0.67
COc1ccc(NC(=O)CC(C)C)cc1OC | -0.3 | ·
COc1ccccc1CC(=O)NC1CC(C)(C)NC(C)(C)C1 | -0.9 | ·
Cc1cc2ccccc2n1CCNC(=O)c1ccccc1 | -0.15 | 1.1
COc1ccc(N(C(=O)c2ccccc2)C2C=CS(=O)(=O)C2)cc1 (stereo not drawn) | 0.9 | 0.42
CCC(=O)NC1=NC(=O)/C(=C\c2cc(OC)c(OC(=O)CC)c(OC)c2)S1 | · | 0.48
CC(=O)Nc1ccc(N=Cc2c(C)[nH]n(-c3ccc(C)c(C)c3)c2=O)cc1 | · | -0.23
O=C(CSc1ncnc2sc3c(c12)CCC3)NCCc1ccccc1 | 0.1 | 0.23
CCN(Cc1ccncc1)Cn1nc(C2COc3ccccc3O2)oc1=S (stereo not drawn) | 1.4 | ·
CC[C@@H](CO)NCCN[C@@H](CC)CO | 0.25 | 1.1
Cn1c(SCC(=O)OCC(=O)c2ccc(Cl)cc2)nc2c1c(=O)[nH]c(=O)n2C | · | -0.23
O=C1CCC(=O)N1CC(O)Cn1c2ccccc2c2ccccc21 (stereo not drawn) | -0.9 | 6.8
NCc1ccccc1-n1cccc1 | -0.3 | 0.44
CN(C)c1ccncc1C(=O)Nc1ccc(F)cc1F | 0.4 | 0.76
Cc1cccc2sc(NC(=O)c3ccc(S(=O)(=O)N4CCc5ccccc54)cc3)nc12 | · | 0.085
CCOC(=O)c1ccc(NC(=O)C(C)Sc2nc(O)c(NC(C)=O)c(=O)[nH]2)cc1 (stereo not drawn) | 0.95 | 0.64
O=C1CC(c2cccc(Cl)c2)CC(O)=C1C=NC1CCCC1 (stereo not drawn) | -0.45 | -0.09
O=S(=O)(Nc1ccccc1)c1cccc2nsnc12 | -0.75 | -0.79
CCCCN(CC)c1ncnc2ccc(Br)cc12 | 0 | -0.51
CCNC(=S)N1N=C2c3ccccc3CCC2C1c1ccc(F)cc1 (stereo not drawn) | -0.15 | -1.1
COc1ccc(S(=O)(=O)C(F)(F)F)cc1NC(C)=O | 1.1 | -0.15
Cc1ccc(OCC(O)CN2CCN(c3ccccc3)CC2)cc1 (stereo not drawn) | -0.5 | 0.43
CCn1c(=O)c(C(=O)NC)c(O)c2ccccc21 | -0.2 | 8.8
O=C(NC(c1ccccc1)c1ccccc1)N1CCCCC1 | -0.95 | -0.64
N#C/C(=C\Nc1ccc(F)c(Cl)c1)C(=O)C1CC1 | 0.25 | -2.2
CN1CCC(N(C(=O)c2ccccc2)C2CCN(C)CC2)CC1 | · | -0.47
Clc1c(CSc2nncn2-c2ccccc2)nc2ncccn12 | -0.1 | 33
CCOC(=O)c1cccc(NC(=O)C(C)(C)CC)c1 | -0.15 | 0.49
CC[N+](CC)=c1scc(-c2ccccc2)s1 | 0.1 | -0.7
COc1ccc(NS(=O)(=O)c2ccc3oc(SC)nc3c2)cc1 | 0 | ·
Cc1cccc(NC(=O)CC2Nc3ccccc3NC2=O)c1 (stereo not drawn) | 0.3 | ·
CCn1cc(CNC(=O)CCc2ccc(OC)cc2)cn1 | 0 | -0.015
Cc1nc(N2CCOCC2)[nH]c(=O)c1Cc1c(F)cccc1Cl | -0.8 | 0.19
Cc1onc(-c2ccccc2Cl)c1C(=O)N1CCOC(c2ccccc2)C1C (stereo not drawn) | 0.35 | 0.23
CCCCc1c(C)c2ccc(OC)c(/C(C)=N\O)c2oc1=O | -0.4 | 8.3
CC1(C)O[C@@H]2CC3C4CCC5=CC(=O)CCC5(C)C4(F)C(O)CC3(C)[C@]2(C(=O)CCl)O1 (stereo partly drawn) | 0.2 | -1.3
Cc1nn(CCCC(=O)NCc2ccccn2)c(=O)c2cc3sccc3n12 | -0.3 | -0.52
Cn1c(=O)n(CC(=O)N2CCN(c3cccc(Cl)c3)CC2)c(=O)c2ccccc21 | · | -0.84
FC(F)(F)c1ccc(-c2nc(-c3ccncc3)ncc2-c2cnccn2)cc1 | · | -0.24
NC(=O)c1c2c(nc3ccccc13)CCCC2 | -0.55 | 0.06
O=C(Cc1c(F)cccc1Cl)Nc1cc(C(=O)N2CCCCCC2)ccc1N1CC2CC(C1)c1cccc(=O)n1C2 (stereo not drawn) | · | -0.21
CCOC(=O)CN=C(NO)c1c(Cl)cccc1Cl | · | -0.54
COc1ccc(/C(O)=C2\C(=N)N(c3ccccc3Cl)C3=C(C(=O)CCC3)C2c2ccc3c(c2)OCO3)cc1 (stereo not drawn) | · | 0.08
CN1c2ccccc2C(=O)CS1(=O)=O | · | 0.39
O=C(CO/N=C/c1cccs1)N1CCCc2ccccc21 | -0.55 | ·
O=c1sc2ccccc2n1CCCOc1ccccc1Cl | 0.6 | 13
O=C(O)CCC(=O)Nc1ccc(N2CCCCC2)c(C(=O)O)c1 | -0.3 | ·
CCOC(=O)c1oc2ccccc2c1COC(=O)c1ccccc1OCC | 0.05 | ·
CN1CCN(c2nnc(-c3ccccc3)c(-c3ccccc3)n2)CC1 | 0.45 | -0.34
CN=c1scc(-c2c[nH]c3ccccc23)n1C | 0.15 | ·
COC(=O)Nc1ccc(S(=O)(=O)N2CCC(C(=O)Nc3ccc(I)cc3C)CC2)cc1 | · | -0.04
COc1ccc(S(=O)(=O)N(C)CC(=O)N2CCCC2)cc1 | -0.15 | ·
CCCCC(=O)C1CCOC(C)(C)C1 (stereo not drawn) | -0.85 | ·
CCn1c(Cn2nnc3ccccc32)nnc1SCC(=O)c1ccc(Br)cc1 | 1 | 0.34
COc1ccc(C(C)=O)c(OCc2ccccc2)c1 | · | 0.15
Cc1nc2ccc(NC(=O)C(C)(C)C)cc2s1 | 1.7 | -0.045
COC(=O)C1=C(CNC2CCCCC2)NC(=O)NC1c1cccc(OC)c1 (stereo not drawn) | -1 | ·
COc1ccc(-n2ncc(C(=O)N3CCN(c4ccc(F)cc4)CC3)c2C)cc1 | 2.5 | -0.4

The listing continues:
SMILES | AID504770 | Ba CapD inh
COc1cc2c(cc1OC)C(COc1ccc3c(C)cc(=O)oc3c1)N(C(=O)C1CC1)CC2 (stereo not drawn) | 0.95 | 0.26
Cc1ccccc1Nc1nc(C2(C)CC3(CC(COCCC(C)C)OC3=O)C(=O)O2)cs1 (stereo not drawn) | · | -0.33
CC1CCCCN1C(=O)COC(=O)c1ccc(-n2cnnn2)cc1 (stereo not drawn) | -1.1 | ·
COc1ccc(-n2c(C)c3c(C)nnc(C)c3c2C)cc1 | -0.85 | 2.9
COc1ccc(N2C(=O)NC(=O)/C(=C\c3cc(Cl)c(OCC(=O)O)c(Cl)c3)C2=O)cc1 | · | -0.03
FC(F)(F)c1cc(Cl)c2nc(CSc3ncccn3)cn2c1 | 0.3 | 2.2
S=C1NCN(CCc2ccccc2)CN1CC1CCCO1 (stereo not drawn) | 1.8 | -0.36
COc1ccc(NC(=O)c2ccc(NC(=O)CSC3=NCCN3)cc2)cc1 | -1.4 | ·
O=C1NN(c2ccccc2)C(=O)/C1=C/c1ccc(Br)cc1 | -0.3 | -0.66
COc1cccc(/C=C2\Oc3ccccc3NC2=O)c1 | 0.25 | 89
CCOc1ccc(CN(C)C(=O)c2cn3ccccc3n2)cc1 | -0.35 | ·
CC(C)C(=O)NCCc1nc2ccccc2n1C | 0 | ·
COC(=O)c1nc(-c2ccccc2)oc1Nc1ccc(C)cc1 | -0.4 | 30
O=C(Nc1ccc(Cl)cc1)C1CC/C(=C\c2ccccc2)C1=O (stereo not drawn) | -0.7 | 19
CC(=O)Nc1ccccc1C(=O)Nc1cc(S(C)(=O)=O)ccc1-c1cnn(C(C)C)c1 | · | 1.4
COc1ccccc1CNC(=O)c1csc(Cc2ccc(Cl)cc2)n1 | · | -0.52
O=S(=O)(c1cccc(F)c1)N1CCN(c2nc3ccc(Cl)cc3s2)CC1 | -0.55 | -0.15
COC(=O)c1c2ccccc2c(C)c2ccccc12 | 0.2 | 5.3
Cc1cc(C)c2nc(SCc3nnc(-c4ccccc4)o3)cc(C)c2c1 | 0.05 | ·
Cc1sc2ncnc(N3CCc4ccccc43)c2c1C | -0.85 | ·
Cc1cccc2nc(-c3ccc(F)cc3)c(-c3ccc(F)cc3)nc12 | · | -0.48
CSc1ncccc1C(=O)Oc1ccc2c(c1)OCO2 | 0.5 | ·
N#C/C(=C\c1ccc(-c2ccc(S(=O)(=O)N3CCOCC3)cc2)o1)C(=O)NCc1ccccc1 | 1.1 | ·
COc1ccc(OC)c(C2NC(=S)NC(C)=C2C(=O)Nc2ccccc2C)c1 (stereo not drawn) | · | -0.01
CC1=C(C(=O)OC(C)C)C(c2cn(-c3ccccc3)nc2-c2ccc(Cl)cc2)NC(=O)N1C (stereo not drawn) | · | 0.12
c1ccc(Sc2ccc(-c3[nH]c(-c4cccc5ccccc45)nc3-c3ccccc3)cc2)cc1 | · | -0.29
S=C1N(c2ccccc2)C(c2ccccc2)N2CCCN12 (stereo not drawn) | -0.55 | -0.16
CNC(=O)Cc1nnc(-c2ccc(C)cc2)o1 | -0.25 | 0.46
COc1ccc(C2C=C(C(=O)O)Nc3ncnn32)cc1OC (stereo not drawn) | 0.35 | ·
Cc1c(C(=O)NCCN2CCOCC2)sc2ncnc(N3CCN(c4ccccn4)CC3)c12 | · | -0.5
CCOC(=O)c1sc2ncn(C(C)C(=O)OCc3ccccc3)c(=O)c2c1C (stereo not drawn) | -0.65 | -0.43
N#Cc1ccc(CN2CCNCC2)cc1 | -0.35 | ·
Cc1nc(SCC(=O)Nc2ccc3ccccc3c2)c(C#N)c(C)c1Cl | · | 0.76
Cc1cc(-c2ccccc2)[nH]c(=O)c1S(=O)(=O)c1ccc(Cl)cc1 | · | 5
Cc1ccc2sc(-c3ccc(NC(=O)CCN4C(=O)c5ccccc5C4=O)cc3)nc2c1 | · | 21
CCCCCNc1ncnc2c1sc1nc(N3CCOCC3)c3c(c12)CC(C)(C)OC3 | · | -0.33
NC1=Nc2cccc3cccc1c23 | -0.8 | ·
COc1ccccc1N1CCN(C(=O)/C(=C/c2ccccc2)NC(=O)c2ccccc2)CC1 | · | -0.18
COc1ccc(CCNC(=O)CSc2nc3c(sc4ccccc43)c(=O)n2CCO)cc1OC | -0.3 | -1.8
COc1cc(C)cc(OC)c1OCC(=O)Nc1cccc(C#N)c1 | -0.6 | ·
O=C(NCc1ccccc1)c1ccccc1NCC(=O)N1CCCCC1 | -3.6 | ·
CCOP(=O)(C=C1C=C(C(C)(C)C)C(=O)C(C(C)(C)C)=C1)OCC | · | -0.56
O=C(C(O)c1ccccc1)N1N=C2CCCCC2C1(O)C(F)(F)F (stereo not drawn) | 0.5 | -0.14
Cc1c(C(=O)N2CCc3ccccc32)sc2nc3n(c(=O)c12)CCCC3 | -0.75 | -0.24
CCc1ccc(NC(=O)c2cc3c(=O)n(CC)c4ccccc4c3s2)cc1 | 1.4 | -1.4

These rows are one share of the data; count on the stated rates, not on these rows.
